VACV Venus inh – vaccinia inhibition (Venus reporter) | Vaccinia virus Venus reporter expression, fluorescence | Potency, µM (series often up to 36.5 µM), inactives show top-dose activity change, negative = inhibition, hits mostly inhibitors | actives 0.46% (n = 330,000) | AID 720580; active means well fitted inhibition curve with a large enough effect; inconclusive means small, poorly fitted or top-dose-only effect; inactive means no such curve, though single readings can be large or run the other way; tested in A549 cells; also: nearly all actives have a fitted effect of over 30% in size; inactives centre near -10
VACV mCherry inh – inhibitors of vaccinia virus infection (mCherry reporter signal); Vaccinia virus mCherry reporter infection, fluorescence; about a quarter of the inactives have no number; Potency, µM (top dose mostly 36.5 µM), for inactives: at the highest dose activity change, negative = inhibition, actives largely listed as inhibitors; actives 0.63% (n = 310,000); AID 720579; active = well fitted inhibition curve with a large enough effect; inconclusive = small, poorly fitted or top-dose-only effect; inactive = no such curve, though single readings can be large or run the other way; tested in A549 cells; also: nearly all actives have a fitted effect of over 35% in size; inactives centre near -10
Numbers without * were called inactive; i = inactive; ? = inconclusive; nt = not tested or not shown; & = joins results of further samples; [ ] = remark or other dose. % is scaled to controls: 0 for no effect and ±100 for the full control effect; potency is read from the fitted curve at half-maximal effect.

Molecule	VACV Venus inh	VACV mCherry inh
Cc1cc(C(F)(F)F)nc(SCC(=O)NC2CC3CCC2C3)n1 (stereo unspecified)	-17%	i
COc1ccc(-c2cc3nc(C4CCN(C(=O)OC(C)(C)C)CC4)c(C(=O)Nc4cc(Cl)cc(Cl)c4)cn3n2)cc1	-9%	-8%
O=C1c2cccc(OCC(=O)N3N=C(c4cccs4)CC3c3ccc(F)cc3)c2CCN1Cc1cccnc1 (stereo unspecified)	?	?
Cc1cc(C)cc(N(CC(=O)Nc2c(C)n(C)n(-c3ccccc3)c2=O)S(C)(=O)=O)c1	-18%	-22%
O=C(COc1ccc(F)cc1)Nc1ccc(C(=O)OCc2cc(=O)n3nc(C4CC4)sc3n2)cc1	-9%	-10%
Cc1cc(C)c(NC(=O)Cn2cc3c(n2)CCCC3)c(C)c1	-3%	-10%
COc1cc(=O)n2c(c1C(=O)NC(C)c1ccco1)CCN(C(=O)c1cccc(C)c1C)CC2 (stereo unspecified)	-8%	-12%
CCS(=O)(=O)Nc1ccc(C2=NN(C(=O)c3ccccc3)C(c3cccs3)C2)cc1 (stereo unspecified)	0%[7.34 µM]	-2%[7.34 µM]
COc1ccc(C)cc1Nc1nc(N)c2cc(OC)c(OC)cc2n1	?	?
Cc1cccc(OCc2nnc(SCC(=O)Nc3ccc(N4CCOCC4)cc3)o2)c1	-1%	i
OC(C#CCN1CCOCC1)(c1ccccc1)C1CCCCC1 (stereo unspecified)	-29%	nt
COc1cccc(-c2nc(C(N)=O)c3[nH]c(=O)n(-c4cccc(Cl)c4)c3n2)c1OC	-6%	-7%
O=C(CCNC(=O)c1ccccc1Cl)Nc1cccc(S(=O)(=O)N2CCCCC2)c1	-13%	-13%
CCCCCc1c(CC)ncn1CCc1ccccc1OC	-20%	-17%
CCC(=O)c1ccc(N2CCN(C(=O)c3cc([N+](=O)[O-])ccc3N3CCN(C)CC3)CC2)c(F)c1	-11%	-15%
Cc1cccc(C)c1N(CC(=O)N1CCOCC1)S(C)(=O)=O	-13%	0%
Cc1ccc(C(=O)OCc2nnc(-c3ccc(Br)cc3)o2)cc1	6%	2%
CC1(C)C2CCC(CN=C(N)CSS(=O)(=O)O)C1C2 (stereo unspecified)	-17%	-12%
Cc1ccc(OCC(=O)Nc2ccccc2F)cc1C	-8%	-5%
O=C(CC(c1cccs1)N1Cc2ccccc2C1=O)Nc1ccc(Cl)cc1 (stereo unspecified)	-5%	-14%
COCCNC(=O)/C(C#N)=C/c1ccc(OCc2ccccc2)cc1	-2%	-1%
CCCC(=O)N1CCC1(C)C(=O)Nc1ccccn1 (stereo unspecified)	8%	13%
CCOC(=O)[C@]12CCCC=C1N(Cc1ccc(Cl)cc1Cl)C(=O)[C@H](CC(=O)NCc1ccc(OC)c(OC)c1)C2	?	?
O=C(NCCN1CCOCC1)C1CCN(S(=O)(=O)N2CCCCC2)CC1	-9%	-18%
COc1ccccc1NS(=O)(=O)c1cccc(C(=O)N/N=C/c2cn(-c3ccccc3)nc2-c2ccccc2)c1	-14%	?
Cc1ccccc1Cn1c(C)c(C(=O)NCc2cccc(C(F)(F)F)c2)sc1=O	-8%	i
O=C(Nc1cccc(C(F)(F)F)c1)/C(=C\c1ccco1)NC(=O)c1cccs1	-12%	-9%
CC(C)C[C@@H](CN)NC(=O)c1nc[nH]c1C(=O)N[C@@H](CC(=O)O)C(=O)CNC[C@H](C)NC(=O)c1nc[nH]c1C(=O)N[C@@H](CC(=O)O)C(=O)O	-5%	-12%
COCCNC(=O)C1(C)CCN(C(=O)c2ccc3c(c2)C(C)(C)CCC3(C)C)C1 (stereo unspecified)	-18%	i
CCCCn1nnnc1C(c1ccccc1)N1CCN(CC)CC1 (stereo unspecified)	-10%	-13%

Later entries.
Molecule	VACV Venus inh	VACV mCherry inh
COc1ccc(-c2c(C)c3ccc(O)c(CN4CCOCC4)c3oc2=O)cc1	-10%	-21%
COc1ccc(-n2c(C)c(C(=O)O)c3cc(OC)c4ccccc4c32)cc1	-5%	0%
Cc1nn(C)c(C)c1CNC(=O)Nc1cccc(Cl)c1C	-6%	i
O=C(CN1CCN(S(=O)(=O)c2ccccc2C(F)(F)F)CC1)NCc1cccs1	-6%	-13%
CC(C)(C)NCC(O)CON=C1c2ccccc2-c2ccccc21 (stereo unspecified)	?	?
O=c1c2ccccc2nc2c3ccccc3ncn12	-5%	-9%
CCn1c(=O)c2c(nc(SCC(=O)Nc3ccccc3)n2C)n(C)c1=O	-5%	-4%
NC(=O)C1CCN(C(=O)COc2ccc3ccccc3c2)CC1	-21%	-8%
CCOC(=O)C1Oc2ccccc2C(c2ccoc2)=C1C(=O)OC (stereo unspecified)	-5%	i
CC1CCN(c2cc(=O)n(C3CCCCC3)c(=O)[nH]2)CC1	-13%	-10%
COc1cc2c(C(=O)OCCN(C)C)c(CSc3ccccc3)n(C)c2cc1Br	-2%	9%
O=C(NC1CCCCC1)C(c1c(F)cccc1Cl)N(C(=O)c1csnn1)C1CC1 (stereo unspecified)	1%	-23%
COC(=O)[C@@H]1CCCN1Cc1ccc2c(c1)CN(Cc1ccc3c(c1)CCO3)CCO2	0%	-6%
Nc1ccc2oc(Cc3ccc(Cl)cc3)nc2c1	?	?
O=C(Nc1ccc(Cc2ccncc2)cc1)c1ccc(Br)o1	-15%	i
Cc1cccnc1NC(=O)Nc1ccccc1	9%	-2%
Cc1cc(C)c(N=Cc2c(O)c3ccccc3oc2=O)c(C)c1	-14%	i
CCc1[nH]nc2c1C1(C(=O)N(Cc3ccccc3)c3ccccc31)C(C#N)=C(N)O2 (stereo unspecified)	-22%	-20%
COc1ccc(OC)c2c(C)cc(C)nc12	-11%	-2%
COc1ccc(OC)c(CCNC(=O)CC2Oc3ccccc3NC2=O)c1 (stereo unspecified)	-7%	i
CCOC(=O)CSc1nc(Cc2ccccc2)nc2ccccc12	-10%	i
O=C1NC[C@H](CCCCN2C[C@H](Cc3ccccc3)N(CCC3CCCCC3)C(=O)C2=O)N(CCc2ccc(O)cc2)C1=O	-8%	3%
O=C(c1cc(COc2ccc(F)c(F)c2)on1)N1CCN(C/C=C/c2ccccc2)CC1	?	?
CC(C)(C)C(=O)OCc1nc(-c2ccc(O)c(O)c2)cs1	-21%	?
CCOc1ccc(NS(=O)(=O)c2ccc(C(=O)NCC(c3ccc(OC)cc3)N3CCOCC3)cc2)cc1 (stereo unspecified)	?	-12%
NS(=O)(=O)c1ccc(CNC(=O)c2cc(-c3ccccn3)nc3ccc(Cl)cc23)cc1	2%	-1%
O=C1[C@H]2[C@H](C=CC[C@H]2C(=O)N2CCOCC2)CCN1Cc1ccccc1	-8%&-14%	-18%
COc1ccc(NC(=S)NCCc2ccccc2OC)c(OC)c1	-21%	-2%
N=c1c(C(=O)NCC2CCCO2)cc2c(=O)n3ccccc3nc2n1C1CCCCC1 (stereo unspecified)	7%	11%
Cc1nc(NC(=O)CN2CCOCC2)sc1-c1ccccc1	-21%	nt

Other entries follow:
Molecule	VACV Venus inh	VACV mCherry inh
CC1CCCN(C(=O)c2ccc3c(=O)n4nc(Nc5ccccc5)sc4nc3c2)C1 (stereo unspecified)	?	?
CCn1cc(C(=O)NCc2ccccc2OC)c(=O)c2cc(S(=O)(=O)N3CCCCCC3)ccc21	-24%	-29%
Cc1cccc(CCNC(=O)c2cc(S(=O)(=O)N3CCCCC3)c[nH]2)c1	?	-12%&-15%
CCN(CC)c1ccc(NC(=O)CNCc2ccccc2Cl)c(C)c1	-22%	?
CC(C)(S)[C@@H](N)C(=O)O	-12%	-14%
CN(CCc1ccccc1)C(=O)c1ccc(NC(=O)Cc2ccc(NC(=O)C3CCCN(C(=O)c4ccccc4)C3)cc2)cc1 (stereo unspecified)	-25%	?
Cc1ccc(NC(=O)C2CCN(S(=O)(=O)c3ccc4c(c3)OCCO4)CC2)c(O)c1	-11%	-25%
COc1ccc(CNC(=O)COC(=O)/C=C/c2ccc(S(=O)(=O)N3CCOCC3)cc2)cc1	-18%	i
CC(C)c1ccc(C(N)=S)cc1	-5%	-12%
O=C(c1ccccc1)N1CCCC(c2nc3c(nnn3Cc3ccc(F)cc3F)c(=O)[nH]2)C1 (stereo unspecified)	-8%	-7%
Cc1noc(C)c1CSCc1ccc(Cl)cc1	-19%	-4%
CC(C)NC(=O)N(C)C[C@H]1Oc2c(NC(=O)C3CCCCC3)cccc2C(=O)N([C@H](C)CO)C[C@@H]1C	-11%	i
CCOc1ccc2[nH]c(=O)c(CN(Cc3ccco3)Cc3nnnn3Cc3ccccc3)cc2c1	-7%	-15%
CN1C(=O)NC2(O)C(=O)c3ccccc3C12O (stereo unspecified)	-8%	-12%
CCc1nnc(SCc2c(F)cccc2Cl)c2cc3sccc3n12	-7%	-18%
CCN1CCN(C(=O)C(C)N(c2ccc(C)cc2)S(C)(=O)=O)CC1 (stereo unspecified)	-12%	nt
O=c1cc(CSc2nnnn2-c2ccccc2)nc2nc[nH]n12	-1%	0%
CCCn1c(SCC(=O)Nc2nc(C)cs2)nnc1-c1cccnc1	-11%	-15%
Cc1ccc(S(=O)(=O)NCC(=O)NCC(=O)N(C)Cc2ccc(Br)s2)cc1C	-24%	0%
COc1ccc(CCN2C(=O)C3C4CC(C5C(C(=O)O)=NOC45)C3C2=O)cc1OC (stereo unspecified)	0%	-2%
CCN(C(=O)c1cccc(NC(=O)c2ccccc2)c1)C1CCCCC1	-25%	-6%
COc1ccc(Cl)c(Cn2c(NCCCO)nc3c2c(=O)n(C)c(=O)n3C)c1	-5%	-14%
N#Cc1ccsc1NC(=O)COC(=O)c1cc(Br)ccc1O	-1%	-8%
CCNc1nc(NCC)nc(N/N=C/c2ccc(N(C)C)cc2)n1	-6%	-20%
CCCCC#Cc1ccc(C(=O)NNC(=O)Nc2ccccc2)o1	4%	i
CCN(CC)CCCNC(=O)c1c(C)oc2ncnc(N3CCOCC3)c12	-12%	i
CCc1cccc(CC)c1NC(=O)CN(C)S(=O)(=O)c1ccc2c(c1)n(C)c(=O)c(=O)n2C	-14%	-17%
Cc1cc(C)cc(NC(=O)CCc2nc3ccccc3[nH]2)c1	-12%	-8%
Fc1ccc(-c2cc3nc(-c4ccccc4)cc(N4CCOCC4)n3n2)cc1	-9%	-16%
Cc1ccc(CNC(=O)Cn2nnc(C(=O)Nc3cccc(C)c3C)c2N)cc1	-7%	-16%

Gathered by group, the entries above containing bromine (five)
Molecule	VACV Venus inh	VACV mCherry inh
Cc1ccc(C(=O)OCc2nnc(-c3ccc(Br)cc3)o2)cc1	6%	2%
COc1cc2c(C(=O)OCCN(C)C)c(CSc3ccccc3)n(C)c2cc1Br	-2%	9%
O=C(Nc1ccc(Cc2ccncc2)cc1)c1ccc(Br)o1	-15%	i
Cc1ccc(S(=O)(=O)NCC(=O)NCC(=O)N(C)Cc2ccc(Br)s2)cc1C	-24%	0%
N#Cc1ccsc1NC(=O)COC(=O)c1cc(Br)ccc1O	-1%	-8%

A different layout for some results above:
The line under a structure holds: VACV Venus inh	VACV mCherry inh
> Cc1cc(C)cc(NC(=O)CCc2nc3ccccc3[nH]2)c1
→ -12%	-8%
> Fc1ccc(-c2cc3nc(-c4ccccc4)cc(N4CCOCC4)n3n2)cc1
→ -9%	-16%

Compound profiles, as listed above. Values in the order: VACV Venus inh	VACV mCherry inh
Cc1noc(C)c1CSCc1ccc(Cl)cc1 is entered as -19%	-4%
CCN(CC)CCCNC(=O)c1c(C)oc2ncnc(N3CCOCC3)c12 is entered as -12%	i
Cc1ccc(S(=O)(=O)NCC(=O)NCC(=O)N(C)Cc2ccc(Br)s2)cc1C is entered as -24%	0%

The list goes on:
Molecule	VACV Venus inh	VACV mCherry inh
COc1cc(C=O)ccc1OCC(=O)Nc1ccccc1N1CCOCC1	-1%	i
CN(Cc1nccn1C)C(=O)CC1C(=O)NCCN1Cc1ccccc1C(F)(F)F (stereo unspecified)	-7%	i
COc1ccc(C(=O)N2CCCC(c3cc(C(=O)Nc4ccccc4)no3)C2)cc1 (stereo unspecified)	-9%	-3%
CCOC(=O)CSc1nnc(CSc2nc3ccccc3c(=O)[nH]2)n1-c1ccccc1	-25%	nt
COc1cccc(CN(C)CC(=O)Nc2cccc(C(F)(F)F)c2)c1OC	-11%	-2%
CCOC(=O)c1[nH]c(C)c(C(=O)NC2CCCCCC2)c1C	-3%	-6%
CCS(=O)(=O)Nc1c(C)n(C)n(-c2ccccc2)c1=O	-9%	i
O=C(NCc1cn2ccsc2n1)c1cccc(C(F)(F)F)c1	-9%	-1%
C#CCOCCOCCOCCNc1nc(N2CCN(C(=O)Cn3cc(CC(C)O)nn3)CC2)nc(N2CCN(C(=O)[C@H](CCCCN)n3cc(CCC(=O)O)nn3)CC2)n1 (stereo partly specified)	-2%	i
c1ccc(CCNc2ccc3ncc(-c4cccc5ccccc45)n3n2)nc1	-4%	i
CCOC(=O)c1ccc(NS(=O)(=O)c2ccc3oc(=O)[nH]c3c2)cc1	15%	-6%
CCOc1ccc(CCNC(=O)CSc2cc(=O)n(C)c3ccc(Cl)cc23)cc1OCC	-18%&-10%	-27%
C=CCOc1ccc(Br)cc1CNCCO	-16%	-10%

Screens (PubChem BioAssay)
